TAR Tat displ: HIV-1 TAR-Tat binding disruption. HIV-1 TAR RNA, Tat peptide displacement FRET; stronger effect = higher value. z-score (no concentration beside the values). 0.6% of 100,000 active. AID 1259389;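 note: score is relative to mean and SD of negative controls; some compounds called inactive have numbers as strong as hits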
CDC25B CDK2 inh: human CDC25B-CDK2/CyclinA binding inhibition | 0.72% of 94,000 active | P30305+P24941 | z-score (no concentration beside the values) | HTRF CDC25B-CDK2/CyclinA binding, anti-His/anti-Flag; stronger effect = higher value | AID 1259370;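 note: score is relative to mean and SD of negative controls; strong numbers were not always called active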
Numbers without * were called inactive; / = not tested or not shown.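 Rule for the calls: active = z-score from 3 up in half or more of its runs; inactive = the rest.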 An unsorted share of the library; any-hit rate near 0.9%.

1	O=C(OCc1cc(=O)n2c3c(sc2n1)CCCC3)C1CCCCC1
2	O=S1(=O)C[C@H](N2CCN(Cc3ccccc3)CC2)[C@@H](S(=O)(=O)c2ccc(F)cc2)C1
3	O=C1CC2Sc3ccccc3N=C2N1Cc1ccccn1 (configuration not stated)
4	Cc1onc(C(=O)N2C(C)CCCC2C)c1[N+](=O)[O-] (configuration not stated)
5	O=C(Cn1cnc(S(=O)(=O)N2CCc3ccccc32)c1)N1CC=C(c2ccccc2)CC1

assay / compound | 1 | 2 | 3 | 4 | 5
TAR Tat displ | -0.55 | 2.5 | / | -0.65 | 0.81
CDC25B CDK2 inh | / | -1.5 | -1.4 | -2.5 | /

As entered above:
TAR Tat displ result of #4 → -0.65
CDC25B CDK2 inh result of #3 → -1.4
TAR Tat displ result of #1 → -0.55
TAR Tat displ result of #5 → 0.81

Continued.
6	COc1cc(OC)c(NC(=O)c2csc3c2CCCC3)cc1Cl
7	CCOC(=O)C1CCN(c2c(NC3CCCc4ccccc43)c(=O)c2=O)CC1 (configuration not stated)
8	O=C(Nc1cccc(Cl)c1)Nc1nnc(CC(=O)N2CCCC2)s1
9	CCOCCCNc1ncnc2c1nc1n2CCCC1
10	Cc1ccc(C)c(OC(C)c2nc3ccccc3[nH]2)c1 (configuration not stated)

assay / compound | 6 | 7 | 8 | 9 | 10
TAR Tat displ | -0.65 | 2 | 0.24 | -0.19 | 0.5
CDC25B CDK2 inh | -1.4 | -1.2 | / | / | -1.5

Compound profiles, from the list above.
O=C(Cn1cnc(S(=O)(=O)N2CCc3ccccc32)c1)N1CC=C(c2ccccc2)CC1 in the list: TAR Tat displ = 0.81; CDC25B CDK2 inh = /
Cc1ccc(C)c(OC(C)c2nc3ccccc3[nH]2)c1 (configuration not stated) in the list: TAR Tat displ = 0.5; CDC25B CDK2 inh = -1.5

The list continues.
11	CCCCN(CC)CCCNc1ncnc2onc(C)c12
12	CC(C)=C/C(C)=N/Nc1c([N+](=O)[O-])cc(C(F)(F)F)cc1[N+](=O)[O-]
13	Cc1nnc(N2C(=O)c3oc4ccccc4c(=O)c3C2c2ccc(C(C)(C)C)cc2)s1 (configuration not stated)
14	COc1ccccc1-c1n[nH]c(=O)c(Cc2ccccc2)n1
15	CCCCCOC1C(C2COC(C)(C)O2)OC2OC(C)(C)OC21 (configuration not stated)
16	O=C(c1cc(C2CC2)[nH]n1)N1CCN(c2ncccn2)CC1

assay / compound | 11 | 12 | 13 | 14 | 15 | 16
TAR Tat displ | 0.44 | / | -0.89 | 0.33 | / | 0.61
CDC25B CDK2 inh | / | -0.37 | 0.22 | / | -1 | /

Among those listed so far, 2 contain fluorine:
2	O=S1(=O)C[C@H](N2CCN(Cc3ccccc3)CC2)[C@@H](S(=O)(=O)c2ccc(F)cc2)C1
12	CC(C)=C/C(C)=N/Nc1c([N+](=O)[O-])cc(C(F)(F)F)cc1[N+](=O)[O-]

assay / compound | 2 | 12
TAR Tat displ | 2.5 | /
CDC25B CDK2 inh | -1.5 | -0.37

Screens deposited in PubChem by Center for Chemical Genomics, University of Michigan.
